High-throughput results deposited in PubChem by several laboratories.
RGS16-Gao HTS: RGS16-Galphao interaction regulator (human); bead-based flow cytometry RGS16-Galphao binding, fluorescence; actives lie on both sides; binding response (% of control), % at 10 µM; 220,000 tested, 0.38% active;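 active = below 25% or above 175%, edge rows of some plates excepted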;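 also: Galphao activated by GDP with aluminum fluoride before binding; 100% = wells without compound and 0% = beads without RGS; some results beyond the cut were filed as inactive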
Target sequence (O15492 whole entry, looked up): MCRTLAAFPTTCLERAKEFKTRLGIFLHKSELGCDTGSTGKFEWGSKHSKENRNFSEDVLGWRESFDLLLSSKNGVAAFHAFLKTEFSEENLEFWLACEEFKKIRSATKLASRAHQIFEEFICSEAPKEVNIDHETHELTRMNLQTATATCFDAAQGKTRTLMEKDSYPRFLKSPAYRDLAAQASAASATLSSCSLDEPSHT
Target sequence (P09471 whole entry, looked up): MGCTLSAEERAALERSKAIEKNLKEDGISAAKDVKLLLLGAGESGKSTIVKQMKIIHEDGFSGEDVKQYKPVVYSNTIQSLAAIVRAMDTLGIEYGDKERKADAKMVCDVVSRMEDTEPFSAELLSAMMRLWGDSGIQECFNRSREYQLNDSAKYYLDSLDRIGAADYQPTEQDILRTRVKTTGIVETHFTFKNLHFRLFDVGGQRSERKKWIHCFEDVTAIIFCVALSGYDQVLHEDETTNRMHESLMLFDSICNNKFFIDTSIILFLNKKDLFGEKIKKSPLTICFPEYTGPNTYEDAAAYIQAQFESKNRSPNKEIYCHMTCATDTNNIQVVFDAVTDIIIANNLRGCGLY
PKD1 inh: inhibitors of human PKD1 kinase. Q15139. AID 797. PKD1 kinase fluorescence polarization assay. inhibition, %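 (about 10 µM by stock and volumes)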. 200,000 tested, 0.056% active;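 active = inhibition of 50% or more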;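 also: controls were vehicle for no effect and a reference inhibitor for full effect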
HSV replic up: increases HSV replication in cells; HSV replication augmentation in cells, fold increase; maximum fold increase; 220,000 tested, 0.005% active; AID 1956;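 active = peak rise of 1.5-fold or more in the series; inconclusive = self-fluorescent or not available for retest; tested in PC3 cells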;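 also: first round at 10 µM; read as green reporter fluorescence; hits show the peak of a series up to 25 µM; 1 = signal of infected wells without compound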
Insulin prom inh: TRM-6 insulin promoter activity inhibition. TRM-6 cells (human fetal islet line), insulin promoter-eGFP reporter, imaging; reporter expression induced with tamoxifen. AID 1273. 130,000 tested, 0.9% active. inhibition, % at 2 µM;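 active = inhibition above the mean plus 3 SD, with well images judged a real hit on visual review, cut at about 60% in these data, passing the limit was not always enough; inconclusive = inhibition over the cutoff but images rejected on review; inactive = inhibition not above the cutoff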
GALR2 ag: activates the human galanin receptor 2. GALR2-expressing cells, agonist activation read-out. 140,000 tested, 0.48% active. AID 803. activation, %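 (tested at 5 µM)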;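 active = above mean plus 3 SD of all compounds, about 5% in these data, not always enough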;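 also: 0% = vehicle buffer wells and 100% = reference agonist at full effect; tested in CHO reporter cells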
Target sequence (O43603 whole entry, looked up): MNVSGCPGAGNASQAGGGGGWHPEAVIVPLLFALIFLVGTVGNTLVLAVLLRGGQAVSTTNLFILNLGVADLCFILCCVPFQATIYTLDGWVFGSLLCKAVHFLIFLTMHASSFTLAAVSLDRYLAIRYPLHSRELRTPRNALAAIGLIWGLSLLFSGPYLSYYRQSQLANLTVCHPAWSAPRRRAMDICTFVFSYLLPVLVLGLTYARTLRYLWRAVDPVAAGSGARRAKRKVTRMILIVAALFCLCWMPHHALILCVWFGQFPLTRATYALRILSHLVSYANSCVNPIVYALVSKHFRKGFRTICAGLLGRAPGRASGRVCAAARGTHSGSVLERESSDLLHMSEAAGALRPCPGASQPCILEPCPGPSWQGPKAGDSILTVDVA
Insulin prom inh cell count: also measured in Insulin prom inh; calls as there; normalized cell count, %; measured here: cell count, toxicity; reference of the scale not given here;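 cells exposed to compound for 48 h; stained nuclei by imaging scaled within each plate; lower means fewer cells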
HSV replic up primary fold: second read-out of HSV replic up, no call of its own (marks repeat the call); fold increase; compound at 10 µM; measured here: primary screen fold increase 10 uM; tested in PC3 cells;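 GFP signal in the first replicate; 1 = infected wells without compound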
* = called active by the depositor; i = inactive; ? = inconclusive; . = not tested or not shown. Rows were taken by chance; overall some 1.3% were active at least once.

Molecule	RGS16-Gao HTS	PKD1 inh	HSV replic up	HSV replic up primary fold	Insulin prom inh	Insulin prom inh cell count	GALR2 ag
CCOC(=O)c1cc(S(=O)(=O)N2CCN(C(=O)OCC)CC2)cn1C	98	-2	i	1	45	87	0.1
Cc1c(C(=O)N/N=C/c2ccc(N(C)C)cc2)[nH]c2ccc(Cl)cc12	23*	-1	i	0.64	-92	78	6.4*
CC(C)C(CO)N1CCN(Cc2ccccc2)CCC1=O (stereo not given)	100	.	i	1	.	.	.
O=C(CCCN1C(=O)c2ccccc2C1=O)Nc1nnc(C2CC2)s1	106	-5	i	1	8	137	.
CC(=O)N=c1c(C#N)cc2c(=O)n3cccc(C)c3nc2n1Cc1ccco1	79	.	i	1.1	.	.	.
Cc1n[nH]c(=S)n(/N=C/c2cccs2)c1=O	111	.	i	0.96	.	.	.
Cc1noc(C)c1CSc1nc2ccccc2c(=O)n1-c1ccccc1	97	-11	i	0.72	.	.	0.2
COc1ccc(/C=C/C(=O)OCC(=O)NCC2CCCO2)cc1 (stereo not given)	106	-14	i	1.1	-126	124	-1.4
COc1cccc(C2NC(=O)NC(C)=C2C(=O)Nc2cc(OC)ccc2OC)c1 (stereo not given)	104	-6	i	0.83	-12	92	-0.5
O=[N+]([O-])c1cccc(/C=N/Nc2cc(Cl)nc(-c3ccccc3)n2)c1	109	-2	i	0.8	7	128	-3.2
CS(=O)(=O)N(Cc1ccccc1)c1ccc(C(=O)NCCSc2ccccn2)cc1	91	-14	i	1.1	-16	137	-1.0
Cc1ccc(NC(=O)c2nc[nH]c2C(=O)N2CCCCC2)c(C(=O)c2ccccc2)c1	106	-2	i	0.95	-91	104	0.1

The listing continues.
Molecule	RGS16-Gao HTS	PKD1 inh	HSV replic up	HSV replic up primary fold	Insulin prom inh	Insulin prom inh cell count	GALR2 ag
COc1ccc(C2C(C(=O)N3CCOCC3)=C(C)NC3=C2C(=O)CC(C)(C)C3)c(OC)c1 (stereo not given)	110	0	i	0.8	-9	89	-2.6
COc1ccccc1-c1cc(C(=O)N2CCN(c3ccccc3OC)CC2)no1	104	6	i	0.8	.	.	0.6
Cc1cn2c(-c3ccc(Cl)cc3)nnc2s1	107	2	i	0.99	.	.	-1.2
CCOc1cc(NC(=S)Nc2cccc(OC)c2)c(OCC)cc1NC(=O)C1CC1	93	-8	i	1.1	20	130	-1.9
N#CCn1c(CCl)nc2ccccc2c1=O	97	2	i	1.1	.	.	.
Cc1ccc(N(CC(=O)N2CCc3ccccc32)S(=O)(=O)c2cccs2)cc1	98	5	i	0.68	40	79	-1.9
CS(=O)(=O)Nc1ccc(C(=O)Nc2ccc(S(=O)(=O)N3CCCC3)cc2)cc1	98	0	i	0.95	.	.	.
Cc1ccc2c(C)cc[n+](CCCS(=O)(=O)[O-])c2c1	104	7	i	1	3	104	0.4
O=C1/C(=C\c2ccco2)NC(=S)N1c1ccccc1	95	-5	?	.	.	.	.
O=C(Nc1nnc(-c2ccco2)s1)C1CC1	102	-7	i	0.92	.	.	-0.8
Fc1ccc(COc2ccc(/C=N/n3cnnc3)cc2)cc1	100	-18	i	1	.	.	-2.0
Cc1cc([N+](=O)[O-])nn1CCCC(=O)NC1CCCCC1	103	4	i	0.85	3	184	.

Other entries follow.
Molecule	RGS16-Gao HTS	PKD1 inh	HSV replic up	HSV replic up primary fold	Insulin prom inh	Insulin prom inh cell count	GALR2 ag
O=C(CN1CCN(Cc2ccccc2)CC1)N/N=C/c1cccs1	95	.	i	1.1	.	.	.
C=C1CC2C3CC[C@@]4(OCOC45COCO5)[C@@]3(C)C(O)CC2[C@@]2(C)CCC(=O)C=C12 (stereo not given in full)	85	-3	i	0.62	8	96	0.0
NC(=O)N/N=C/c1ccc(N2CCOCC2)s1	104	1	i	1.2	-48	100	-0.3
O=S(=O)(NCCn1cccc1)c1ccc2ccccc2c1	108	1	i	1	21	145	.
CSc1nc(C)c(CCOCc2ccccc2)c(=O)[nH]1	109	-1	i	0.91	.	.	-0.8
FC(F)(F)c1ccc(-c2nnc(-c3ccccn3)c(-c3ccccn3)n2)nc1	108	.	i	0.92	.	.	.
Cc1cc(=O)[nH]c(SCC(=O)N2CCCc3ccccc32)n1	105	0	i	1.1	28	87	-1.2
O=c1cc(-c2ccc([N+](=O)[O-])cc2)c2cc3c(cc2[nH]1)OCCO3	104	5	i	0.94	17	80	.
CCn1c(N)c(C(=O)Nc2ccccc2C(=O)OC)sc1=S	102	-9	i	0.7	23	110	-1.3
CCOC(=O)Cc1csc(NC(=O)C(NC(=O)C2CCCCC2)C(C)C)n1 (stereo not given)	95	-5	i	1.1	27	90	.
O=C(Cc1ccccc1[N+](=O)[O-])Nc1nccs1	107	.	i	0.96	.	.	.
COCCN(Cc1cc2cc3c(cc2nc1Cl)OCO3)C(=O)Nc1ccc(F)cc1	94	-3	i	0.68	29	99	-4.2

The closing 3 records of the section above open the next one:
Molecule	RGS16-Gao HTS	PKD1 inh	HSV replic up	HSV replic up primary fold	Insulin prom inh	Insulin prom inh cell count	GALR2 ag
CCOC(=O)Cc1csc(NC(=O)C(NC(=O)C2CCCCC2)C(C)C)n1 (stereo not given)	95	-5	i	1.1	27	90	.
O=C(Cc1ccccc1[N+](=O)[O-])Nc1nccs1	107	.	i	0.96	.	.	.
COCCN(Cc1cc2cc3c(cc2nc1Cl)OCO3)C(=O)Nc1ccc(F)cc1	94	-3	i	0.68	29	99	-4.2
CCOC(=O)c1c(OCC)[nH]c2ccc(O)cc12	96	-3	i	0.9	26	123	0.0
Cc1ccc(NC(=O)C(OC(=O)c2ccc(NC(N)=O)cc2)c2ccccc2)cc1Cl (stereo not given)	77	-2	i	1.1	.	.	-1.0
COc1ccc(NC(=O)CC2C(=O)N(C)C(=S)N2CCc2ccccc2)cc1 (stereo not given)	115	2	i	0.83	7	112	-0.9
O=c1oc2ccccc2n1CCCCCn1c(=O)oc2ccccc21	97	1	i	0.93	.	.	-1.9
CC1CCCN(c2nc(N(C)c3ccccc3)nc(N)c2[N+](=O)[O-])C1 (stereo not given)	97	.	i	1	.	.	.
O=C(CSc1ccc2nnc(-c3ccc(F)cc3)n2n1)N1CCOCC1	.	-4	i	0.93	.	.	-0.7
CC(C)C(NC(=O)CSc1ccc(Cl)cc1)C(C)C	106	1	i	0.8	-50	96	0.6
O=S(=O)(Nc1ccc(Oc2ncccn2)c(Cl)c1)c1ccc(F)cc1	104	-4	.	.	46	112	-0.5
COc1ccc(OC)c(-c2nc(C(N)=O)c3[nH]c(=O)n(-c4ccc(F)cc4)c3n2)c1	100	12	i	1	.	.	-0.2
O=C(N/N=C/c1cccnc1)c1ccccc1OCc1cccc(Br)c1	106	-5	i	0.88	-33	122	.
CC(C)Oc1ccccc1/C=N/NC(=O)c1ccc(F)cc1	71	-14	i	1.1	-21	66	-1.3
CCn1c(SCC(=O)Nc2ccccc2N2CCOCC2)nnc1-c1ccccc1	88	3	i	0.89	-23	60	-3.1

Next section
Molecule	RGS16-Gao HTS	PKD1 inh	HSV replic up	HSV replic up primary fold	Insulin prom inh	Insulin prom inh cell count	GALR2 ag
C=CCN1C(=O)C(CC(=O)O)SC1=Nc1c(C)n(C)n(-c2ccccc2)c1=O (stereo not given)	103	-6	i	0.94	3	105	-1.3
Cc1c(NS(=O)(=O)c2ccc3c(c2)Cc2ccccc2-3)c(=O)n(-c2ccccc2)n1C	108	-11	i	0.75	.	.	.
C/C(=N\NC(=S)NC1CCCCC1)c1ccc(Cl)c(Cl)c1	96	.	i	0.85	.	.	.
CC(=O)c1ccc(N2CCC(C)CC2)c(F)c1	86	1	i	0.96	11	48	.
Cc1nc2ccc(C(=O)c3ccccc3)cc2[nH]1	126	-3	i	0.87	63	111	-0.8
Cn1[nH]c(C(F)(F)F)cc1=O	99	1	i	0.92	.	.	.
O=C(CC1NCCNC1=O)Nc1ccc2c(c1)OCCO2 (stereo not given)	106	-10	i	0.85	.	.	-2.3
N#Cc1ccc(-c2ccc(OCC(=O)NCC(=O)Nc3ccc(F)c(F)c3F)cc2)cc1	100	-7	i	0.93	36	92	1.8
Cc1cc(=O)oc2cc(OCC(=O)OCC(=O)NCCc3ccccc3)ccc12	100	-13	i	0.97	50	116	.
CCn1c(SCC(=O)N2CCN(c3ccccc3)CC2)nnc1-c1c[nH]c2ccccc12	102	2	i	0.89	.	.	-2.2
Cc1nc(SCC(=O)O)c(C#N)c(C)c1CC(=O)c1ccccc1	90	-2	i	1	-25	36	.
CCN1C(=O)CC(c2ccco2)Sc2ccccc21 (stereo not given)	89	2	i	1.1	.	.	-1.5

Carrying on:
Molecule	RGS16-Gao HTS	PKD1 inh	HSV replic up	HSV replic up primary fold	Insulin prom inh	Insulin prom inh cell count	GALR2 ag
C=CCN=C(NC#N)SCc1ccccc1	104	-3	i	0.92	-12	130	-2.6
COc1cc(OC)c(C(=O)N2CCCC2)cc1OC	100	10	i	1.2	.	.	.
COc1ccc(NC(=O)Nc2ccccn2)cc1OC	109	.	i	0.78	.	.	.
CC(C)Oc1ccc(C2C(C(=O)c3ccco3)=C(O)C(=O)N2Cc2cccnc2)cc1 (stereo not given)	104	-6	i	0.86	.	.	-0.4
CCCOc1cc(C)c(Cl)cc1S(=O)(=O)N(CC)CC	100	0	i	0.96	-35	100	-0.7
Cn1c(SCC(=O)N2CCc3ccccc32)nc2cccnc21	102	-1	i	0.98	.	.	-0.8
CNC(=O)c1ccc(-c2ccccc2)s1	100	-5	i	1	49	107	-0.6
Cc1ccc(OCC(=O)N2CC3(C)CC2CC(C)(C)C3)cc1 (stereo not given)	77	-1	i	0.84	-12	129	-1.7
CSc1ccccc1NC(=O)c1ccccc1N(C)S(C)(=O)=O	97	0	i	0.84	41	18	-3.9
COc1ccc(Nc2oc(-c3ccccc3F)nc2C#N)cc1	111	.	i	0.96	.	.	.
COc1ccc(N2CCN(C3CC(=O)N(Cc4ccc(N5CCCC5=O)cc4)C3=O)CC2)cc1 (stereo not given)	104	-7	i	0.93	.	.	-0.2
Cc1[nH]c2ccccc2c1C(=O)/C=C\c1ccccc1Cl	102	-8	i	0.75	.	.	-0.3

(continued)
Molecule	RGS16-Gao HTS	PKD1 inh	HSV replic up	HSV replic up primary fold	Insulin prom inh	Insulin prom inh cell count	GALR2 ag
O/N=C/c1ccccc1Oc1ccccc1	101	-7	i	0.79	-3	85	-1.6
COCc1nnc(NC(=O)CS(=O)(=O)Cc2ccccc2)s1	87	5	i	1	25	141	0.0
Cc1cccc(-n2nc([N+](=O)[O-])c(N3CCN(C(=O)c4ccco4)CC3)[n+]2[O-])c1	98	8	i	1	.	.	.
Cc1nnsc1-c1nnc(SCC(=O)c2ccccc2)n1C1CC1	97	.	i	1.1	.	.	.
Fc1ccc(-c2csc3ncnc(Nc4ccc(N5CCOCC5)cc4)c23)cc1	99	0	i	0.94	17	104	-1.1
O=C(NC1CCCC1)C(c1ccsc1)N(C(=O)Cc1cccs1)c1cccc(F)c1 (stereo not given)	102	-12	i	0.92	-7	104	-2.0
CC(=O)Oc1ccc(C2OC(=O)c3ccccc3N2C(C)=O)cc1 (stereo not given)	.	0	i	0.88	4	39	-2.0
CC(=O)/C(=N/Nc1ccccc1)Sc1nnc(C(O)c2ccccc2)n1-c1ccccc1 (stereo not given)	18*	3	i	1	.	.	-0.6
CC1CC(C)CN(C(=O)CCc2ccccc2)C1 (stereo not given)	101	5	i	0.91	7	109	.
C=CCNC(=S)NNC(=O)c1cc(C)nc2ccccc12	57	5	i	0.96	15	89	-0.4
